Source: PubChem
gsp agonist = agonists of gsp mutant (McCune-Albright syndrome); gsp mutant cells, cAMP HTRF, 30 min; control for the full effect not named in the record; Potency, µM (top dose mostly 76.9 µM), without a hit: top-dose activation (cAMP increase), usual class: activators; actives 0.13% (n = 340,000); AID 624287; active = well fitted activation curve with a large enough effect; inconclusive = small, poorly fitted or top-dose-only effect, or another doubt; inactive = no such curve, though single readings can be large or run the other way; cell line not stated here;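 note: phosphodiesterase inhibitor Ro 20-1724 added with compounds to block cAMP breakdown; potency is the fitted concentration of half-maximal effect; nearly all actives have a fitted effect of over 60% in size; about a fifth of the inactives were tested at one dose only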
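Cells stably selected in G418 were plated at 2000/well, grown 16-24 hr, then given compounds in DMSO with the PDE inhibitor […] (300 uM solution added) for 30 min at 37C; cAMP was read by HTRF.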
Sfp inh = inhibitors of Bacillus subtilis Sfp phosphopantetheinyl transferase. actives 3.5% (n = 310,000). Potency, µM, for inactives: max response, negative = inhibition, hits mostly inhibitors. Biochemical Sfp PPTase activity, qHTS. Q9F4F7. AID 1490; active = well fitted inhibition curve with a large enough effect; inconclusive = small, poorly fitted or top-dose-only effect, or another doubt; inactive = no such curve, though single readings can be large or run the other way;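 note: the enzyme is Sfp with the accession as filed and its product quenches rhodamine fluorescence; potency is the fitted concentration of half-maximal effect; 0% = enzyme reaction without inhibitor and -100% = no enzyme wells; top concentration of the series not given in the record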
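Reaction rates are the 30-min fluorescence difference (ex 525, em 598 nm) in wells containing 15 nM Sfp, 5 uM rhodamine-CoA and 12.5 uM BHQ-2-YbbR at pH 7.6 with 10 mM MgCl2.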
TRPV1 potentiator = enhances activation of the human vanilloid receptor TRPV1. TRPV1-expressing cells, Fluo-8 calcium influx, capsaicin EC20 potentiation; host cell line not named in the record; control for the full effect not named in the record. AID 540277. actives 0.02% (n = 320,000). potentiation, % at 8.33 µM; active means potentiation above 80%; inconclusive means 30% to 80%; inactive means below 30%; note: 0% is about no effect
Target sequence (Q8NER1 whole entry, looked up): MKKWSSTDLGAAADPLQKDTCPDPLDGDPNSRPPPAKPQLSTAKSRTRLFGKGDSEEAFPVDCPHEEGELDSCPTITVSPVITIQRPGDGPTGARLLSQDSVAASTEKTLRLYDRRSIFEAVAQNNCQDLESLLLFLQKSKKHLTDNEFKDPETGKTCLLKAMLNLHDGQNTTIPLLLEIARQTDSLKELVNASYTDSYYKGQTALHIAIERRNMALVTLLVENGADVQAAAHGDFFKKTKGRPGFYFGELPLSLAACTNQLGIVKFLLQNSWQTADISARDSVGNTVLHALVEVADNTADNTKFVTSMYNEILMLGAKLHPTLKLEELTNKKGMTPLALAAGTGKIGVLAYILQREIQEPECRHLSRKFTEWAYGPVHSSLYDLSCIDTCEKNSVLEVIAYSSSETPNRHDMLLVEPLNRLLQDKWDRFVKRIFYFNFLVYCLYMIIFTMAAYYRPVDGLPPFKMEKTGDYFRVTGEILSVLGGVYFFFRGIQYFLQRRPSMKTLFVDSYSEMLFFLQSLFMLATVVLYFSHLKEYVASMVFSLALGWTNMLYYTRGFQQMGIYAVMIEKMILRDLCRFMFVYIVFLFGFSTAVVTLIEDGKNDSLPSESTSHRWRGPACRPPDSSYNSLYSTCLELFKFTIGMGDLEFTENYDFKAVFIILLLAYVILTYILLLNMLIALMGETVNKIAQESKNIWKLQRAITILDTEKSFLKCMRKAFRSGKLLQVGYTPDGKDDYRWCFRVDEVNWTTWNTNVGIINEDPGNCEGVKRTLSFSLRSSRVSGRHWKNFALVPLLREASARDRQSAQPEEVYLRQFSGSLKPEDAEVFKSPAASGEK
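TRPV1-expressing cells were cultured overnight at 35.5C and loaded with Fluo-8 calcium dye for 40 to 90 min at room temperature. After a 10 s baseline, compound was added and calcium influx was read kinetically for 3 min (ex 480/em 520 nm).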
ClpP mod = qHTS Assay for Activators of ClpP | ATP-dependent Clp protease proteolytic subunit (Bacillus subtilis (strain 168)), P80244 | purified B. subtilis ClpP, FRET peptide cleavage, 20 min | Potency, µM (highest dose often 57.5 µM), for the others: at the top dose activity change, negative = active | actives 1.9% (n = 340,000); active = well fitted falling curve with a large enough effect; inconclusive = small, poorly fitted or top-dose-only effect; inactive = no such curve, though single readings can be large or run the other way; note: potency is the fitted concentration of half-maximal effect; the source files actives as falling curves though it sought activators and does not explain the sign; nearly all actives have a fitted effect of over 65% in size; many hits overshoot -100%
Target sequence (P80244 whole entry, looked up): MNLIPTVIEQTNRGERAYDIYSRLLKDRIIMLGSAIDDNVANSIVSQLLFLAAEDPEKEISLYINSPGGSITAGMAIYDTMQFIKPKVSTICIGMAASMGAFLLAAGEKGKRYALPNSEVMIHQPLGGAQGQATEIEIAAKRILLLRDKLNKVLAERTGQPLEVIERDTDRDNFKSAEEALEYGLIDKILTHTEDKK
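Purified B. subtilis ClpP, 10 microg/mL final in Tris/HCl pH8 with KCl, BSA, glycerol and Tween-20, cleaved an Abz/nitrotyrosine-quenched decapeptide. Fluorescence (ex 320, em 430) was read at 0 and 20 min at room temperature. Delta was normalized to 5.8 microM ADEP and DMSO/no-enzyme controls.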
CtBP-E1A blk = CtBP/E1A binding inhibition; AlphaScreen GST-E1A/His-CtBP binding, 1536-well; hits give low values; control for the full effect not named in the record; activity change, % (test concentration not listed); actives 0.49% (n = 340,000); AID 651724; in the data active means activity change below about -65%; inconclusive means about -30% to -65%; inactive means above about -30%; note: % is set by controls: 0 for no effect and ±100 for the full control effect; compound concentration not given in the record
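Protein mix (5X: 125 nM each GST-E1A, His-CtBP) was incubated with pinned compound 2 h at 37 deg C in dark, in 50 mM Tris pH 8.0 buffer with 300 mM NaCl. Glutathione donor and nickel acceptor beads followed; AlphaScreen signal read after 1 h.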
Menin MLL FP FL = menin-MLL binding inhibition, fluorescein peptide; 290,000 tested, under 10 active; FP activity change, % at 61.4 µM; AID 1766; Fluorescence polarization, fluorescein-MLL peptide displacement from menin; inconclusive = falling polarisation curve, or a change in total fluorescence; inactive = total fluorescence flat and polarisation flat or rising; no compound was filed as active; the % refers to the polarisation; negative = inhibition;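 note: % of control where 0% means no effect; inhibitors lower the polarisation; unlabelled MLL peptide was the positive control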
gsp antagonist = antagonizes gsp, the McCune-Albright syndrome mutation; Potency, µM (series often up to 76.9 µM), for inactives: at the top dose activity change, negative = inhibition, usual class: inhibitors; actives 0.4% (n = 340,000); AID 624288; gsp-mutant cells, cAMP HTRF, 30 min; control for the full effect not named in the record; active = falling curve of any shape with a large fitted effect; inconclusive = falling curve, mostly with a smaller effect; inactive = flat or rising curve; cell line not stated here;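 note: intracellular cAMP measured with PDE inhibitor Ro 20-1724 present during compound exposure; potency is the fitted concentration of half-maximal effect; % is set by controls: 0 for no effect and ±100 for the full control effect; nearly all actives have a fitted effect of over 65% in size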
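Cells in G418 medium, seeded 16-24 h, 37C; buffer exchange to DPBS + 1 mM CaCl2, 0.5 mM MgCl2, 0.05% BSA; cpds in DMSO + […] (300 uM stock), 30 min 37C; HTRF cAMP detection.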
Active calls of the source: *; ? = inconclusive; / = not tested or not shown; & = joins results of further samples; [ ] = dose if it differs, or a comment.

compound,gsp antagonist,Menin MLL FP FL,Sfp inh,TRPV1 potentiator,ClpP mod,CtBP-E1A blk,gsp agonist
Cc1cccc(NC(=O)Nc2ccc(S(=O)(=O)Nc3onc(C)c3C)cc2)c1,11%,/,/,13,-0.7%,/,17%
CC(C)c1nc(SCC(=O)N2CCN(c3ccccc3)CC2)c2c(=O)n(C)c(=O)n(C)c2n1,6%,1.6,-10%,8,-5.2%,5,-2%
c1coc(CNCC2OCCc3ccccc32)c1 (stereo not given),-3%,1.9,-4%,6,0.1%,12,-4%
Cc1ccc(C(=O)N/C(=C\c2ccc(-c3ccccc3[N+](=O)[O-])o2)C(=O)NCCN(C)C)cc1,-4%,?,40µM*,-15,/,-11,?
COc1ccc(NC(C)=O)cc1NC(C)C(=O)Nc1ccc(F)c(F)c1F (stereo not given),9%,3.3,3%,11,3.5%,2,-1%
Cn1c(Nc2ccccc2)nc2ccccc21,-11%,0.5,8%,-1,-2.3%,-11,-9%
COc1cccc2cc(-c3nc4ccccc4[nH]3)c(=O)oc12,4%,-0.5,20%,3,/,-5,-12%
Cc1ccc(NC(=O)c2ccc3c(c2)S(=O)(=O)c2ccccc2C3=O)cc1S(=O)(=O)N1CCOCC1,-6%,6.2,-3%,-7,-0.5%,-11,-42%
O=C1CCc2cc(NS(=O)(=O)c3ccccc3)cc3c2N1CC3,-1%,/,/,7,/,-17,6%[15.4 µM]
COCCn1c(SCC(=O)Nc2ccc3c(c2)OCCO3)nc2ccccc2c1=O,/,/,/,/,2.3%,-1,-30%[inhibitor]
CCOc1cc(/C=N/NC(=O)COc2nc(C)cc(COC)c2C#N)ccc1O,-6%,7.0,23%,2,-4.4%,/,5%
COc1ccc(C(=O)C2CCCN(C(=O)c3ccccc3C(C)=O)C2)cc1F (stereo not given),0%,4.5,3%,-5,/,-7,6%[15.4 µM]
COc1ccccc1C(=O)O/N=C(\N)c1ccc(Cl)cc1,-7%,2.5,-14%,/,0.7%,10,15%
O=C(c1ccc(Cl)cc1)N1CCC(O)(CSc2ccccc2)CC1,0%[15.4 µM],0.7,2%,6,-11%,-2,-27%
CCOc1ccc(S(=O)(=O)N(C)c2ccc(OCC(=O)Nc3nccs3)cc2)cc1,-3%,2.2,6%,11,/,-8,?
C/C(=C1/SC(=S)N(CCC(=O)O)C1=O)c1ccc(O)cc1,5%,27,-28%,14,-6.0%,-6,-17%
O=C(Nc1ccccc1)Nc1ncc([N+](=O)[O-])s1,28µM*,12,-6%,11,/,-14,-12%[15.4 µM]
c1cc2c3c(cccc3c1)C(N1CCCCCC1)=N2,-5%,-13,-18%,9,75%,1,-16%
C=CCn1c(SCC(=O)OCc2ccccc2)nc2c1c(=O)n(C)c(=O)n2C,-3%,5.0,-29%,-2,0.0%,-9,-10%
COC(=O)Cn1c(=O)c2c(nc3n2CCCN3CCc2ccccc2)n(C)c1=O,-18%,2.0,1%,-3,/,6,-30%[inhibitor]
Cc1ccc(Cl)cc1N1CCN(CC(=O)Nc2ccc3[nH]c(=O)[nH]c3c2)CC1,1%,5.5,0%,-27,-2.4%,-12,-12%
Cc1c(C(=O)NCc2cccs2)oc2ccc(Br)cc12,0%,-0.7,-9%,4,-1.2%,4,4%
CN1CCN(c2ccc(S(=O)(=O)N3CCCCC3)cc2NC(=O)Cc2c(F)cccc2Cl)CC1,6%,/,/,4,0.8%,-1,4%
CCn1c(/C=C/c2cccc([N+](=O)[O-])c2)nc2ccccc2c1=O,8%,0.4,5%,5,-0.7%,0,-31%
CCCCOC1(c2ccccc2)OC(=O)c2ccccc21 (stereo not given),-2%,1.8,-4%,-5,-1.2%,25,-20%
COc1ccc(C(O)c2nc3ccccc3n2C)cc1OC (stereo not given),-6%,-0.5,9%,7,0.4%,7,-17%
CCOC(=O)CSc1nnc(CNC(=O)Cc2ccccc2)n1C,3%,2.0,11%,0,-1.6%,8,9%
Cc1cc(C)cc(Oc2ccc(NC(=O)C3CC=CCC3C(=O)O)cc2)c1 (stereo not given),2%,-2.5,-10%,6,0.0%,8,-3%[15.4 µM]
CCCN1CCC(=O)N([C@H](CO)c2ccccc2)CC1,3%,-0.2,13%,-7,1.0%&-0.9%,5,/
COc1ccc(COC(=O)C2=C(C)NC(=O)NC2c2ccc(O)c(OC)c2)cc1 (stereo not given),-11%,0.6,2%,/,0.1%,12,-12%

6 entries drawn at random from those above:
compound,gsp antagonist,Menin MLL FP FL,Sfp inh,TRPV1 potentiator,ClpP mod,CtBP-E1A blk,gsp agonist
C=CCn1c(SCC(=O)OCc2ccccc2)nc2c1c(=O)n(C)c(=O)n2C,-3%,5.0,-29%,-2,0.0%,-9,-10%
CCCCOC1(c2ccccc2)OC(=O)c2ccccc21 (stereo not given),-2%,1.8,-4%,-5,-1.2%,25,-20%
CN1CCN(c2ccc(S(=O)(=O)N3CCCCC3)cc2NC(=O)Cc2c(F)cccc2Cl)CC1,6%,/,/,4,0.8%,-1,4%
COc1ccc(C(O)c2nc3ccccc3n2C)cc1OC (stereo not given),-6%,-0.5,9%,7,0.4%,7,-17%
O=C(Nc1ccccc1)Nc1ncc([N+](=O)[O-])s1,28µM*,12,-6%,11,/,-14,-12%[15.4 µM]
COc1ccc(COC(=O)C2=C(C)NC(=O)NC2c2ccc(O)c(OC)c2)cc1 (stereo not given),-11%,0.6,2%,/,0.1%,12,-12%

Next records follow.
compound,gsp antagonist,Menin MLL FP FL,Sfp inh,TRPV1 potentiator,ClpP mod,CtBP-E1A blk,gsp agonist
O=C(CCN1C(=O)/C(=C\c2ccc(F)cc2)SC1=S)Nc1ccc(O)cc1,7%,/,13%,-15,0.8%,-8,-2%[15.4 µM]
FC(F)(F)c1cccc(CN2CCN(c3ncccn3)CC2)c1,-6%,/,/,/,-3.1%,6,6%
CC(=O)c1c(C)nc(-c2ccc(Cl)cc2Cl)n1O,-9%,-0.6,-4%,4,-1.7%,0,-17%
COC(=O)CCCC1=CC2=C(c3ccccc3)C(=O)C(C)(OC(=O)C3CCCC3)C(=O)C2=CN1C1CCCC1 (stereo not given),-12%,-2.8[11.7 µM],-13%&-3%,-36,-1.7%,-18,/
CCOC(=O)CSc1nc2sc3c(c2c(=O)n1CC)CC(C)(C)OC3,-5%,-3.8,17%,-6,-6.5%,0,-40%[inhibitor]
CCc1ccc(CNC(=O)C2CCCN(S(=O)(=O)N(CC)c3ccccc3)C2)cc1 (stereo not given),-7%,0.1,7%,-3,-0.1%,2,11%
CN(C)c1ccc(NC(=O)Nc2csc3ccccc23)cc1,-11%,-1.6,19%,-14,/,?,-27%
CC1(C(=O)O)CCC(C(=O)Nc2ccc3ccccc3c2)C1(C)C (stereo not given),-8%,2.0,3%,4,0.9%,2,?
CSCC[C@H](Nc1ncnc2sc(C)c(C)c12)C(=O)O,3%,0.2,18%,-1,0.7%,-9,22%
COc1ccc2sc(N(CCCN(C)C)C(=O)c3ccc(S(=O)(=O)N(C)C4CCCCC4)cc3)nc2c1,6%,/,/,-9,-2.7%,-18,15%[15.4 µM]
CC1(C)Cc2ccccc2C(CSc2ccccc2C(=O)O)=N1,-15%,7.1,-29%,-11,/,-13,-13%[15.4 µM]
O=C(NC(=S)Nc1ccccc1N1CCCC1)c1cccc(F)c1,-12%,-2.1,?,-2,0.8%,/,-10%
CC(C(=O)NCC1CCCCC1)N1CCN(S(=O)(=O)/C=C/c2ccccc2)CC1 (stereo not given),0%,6.1,14%,-3,-3.8%,-13,16%
CCOC(=O)N1CCC(NC(=O)CCc2c(C)nc3c(c(C)nn3-c3ccccc3)c2C)CC1,5%,/,/,/,-10%,-25,?
CC(=O)c1ccc(NC(=O)COC(=O)/C=C/c2cccs2)cc1,-18%,/,/,/,-20%,-1,21%[15.4 µM]
COc1cc2c(cc1N)-c1ccc(N)cc1C2,?,/,/,/,?,3,11%
O=C(CSc1ccc(-c2cccc([N+](=O)[O-])c2)nn1)N1CCCC1,-3%,3.6,-4%,-37,/,-6,20%[15.4 µM]
CN1C(=O)N(CC(=O)N2CCN(S(=O)(=O)c3ccc(Cl)s3)CC2)C(=O)C12CCCCC2,-5%,/,/,6,-3.2%,-4,-56%[inhibitor]
CCCNC(=O)Cc1cc(=O)[nH]c(=O)[nH]1,5%,-0.4,26%,25,-0.6%,1,-37%[inhibitor]
Cc1cccc(C)c1NC(=O)C1CC(=O)N(C(C)C)C1 (stereo not given),-8%,-0.7,11%,0,-1.6%,7,-16%
O=C(c1ccc(Cl)cc1)c1cnc(-c2ccc(Cl)cc2)s1,7%,-2.2,11%,/,-0.7%,3,-9%
CN(C(=O)CSc1nnc(-c2ccco2)n1C)C1CCCCC1,9%,/,/,-11,-2.7%,-6,-7%[15.4 µM]
CN(c1ccc(OCC(=O)OCC(=O)Nc2ccc(Br)cc2)cc1)S(=O)(=O)c1cccs1,-23%,4.0,17%,4,0.5%,3,-2%
Clc1ncc(CN2CCN(Cc3ccccc3)CC2)s1,9%,-0.2,8%,-2,-0.6%,5,-23%
O=C(N/N=C/C=C/c1ccccc1)c1cc(C2CC2)[nH]n1,-6%,0.1,8%,?,/,-1,7%[15.4 µM]
S=c1[nH]nc(COc2ccccc2)n1/N=C/c1ccccc1Cl,-44%,-1.2,?,-5,1.6%,22,-31%[15.4 µM]
OC(C#CCN1CCCCC1)(c1ccccc1)c1ccccc1,-10%,0.4,12%,12,/,-4,-50%[inhibitor]
Cc1cc(C)c(NC(=O)Cn2nnc(C(=O)NCc3ccco3)c2N)c(C)c1,-3%,2.3,-26%,?,-4.3%,/,?

The order is random; overall some 5.3% were active at least once.
